GLA inh pH 4.5 = blocks human alpha-galactosidase A at pH 4.5; P06280; purified enzyme, 4-MU-alpha-Gal fluorescence, pH 4.5; activity change, negative = inhibition, % at 105 µM; 230,000 tested, under 10 active; inconclusive = small, poorly fitted or top-dose-only inhibition, or a rising curve; inactive = flat fitted curve, though single readings scatter; no compound was filed as active;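 further: 0% = full activity with enzyme and -100% = basal without enzyme; dose as in the result columns while the protocol names 77 µM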
Target sequence (P06280 whole entry, looked up): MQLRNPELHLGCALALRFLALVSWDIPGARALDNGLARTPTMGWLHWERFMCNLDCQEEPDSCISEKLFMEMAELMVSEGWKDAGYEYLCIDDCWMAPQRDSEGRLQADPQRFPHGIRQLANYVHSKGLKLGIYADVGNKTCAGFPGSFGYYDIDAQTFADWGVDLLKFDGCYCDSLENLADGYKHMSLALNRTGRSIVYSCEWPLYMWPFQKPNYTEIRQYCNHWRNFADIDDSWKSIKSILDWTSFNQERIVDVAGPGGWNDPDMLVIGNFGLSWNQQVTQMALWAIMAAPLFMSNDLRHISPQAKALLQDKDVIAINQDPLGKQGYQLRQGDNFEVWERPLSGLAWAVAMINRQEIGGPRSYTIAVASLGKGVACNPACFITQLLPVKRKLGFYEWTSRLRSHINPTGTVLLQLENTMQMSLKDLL
Rango complex inh = inhibitors of Rango-importin beta complex formation; AID 540263; Potency, µM (series often up to 92.2 µM), without a hit: top-dose inhibition of complex formation; Q14974; Rango CFP/YFP FRET sensor + importin beta, 45 min; actives 0.031% (n = 340,000); active = rising FRET ratio curve, often small or poorly fitted; inconclusive = mostly compound fluorescence or quenching in the first reads; inactive = flat curves in all reads;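 further: potency means the concentration at half of the fitted maximal effect; 0% = DMSO wells and 100% = buffer wells lacking importin beta; nearly all actives have a fitted effect of over 15% in size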
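Inhibition scored from the CFP 486 nm/YFP 530 nm FRET ratio 45 min after adding 0.125 microM importin beta to 50 nM Rango biosensor preincubated 5 min with compound (room temperature, PBS with DTT, Tween-20, BSA). No-importin wells as positive control.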
Rango release inh = inhibitors of RanGTP-induced Rango-importin beta complex dissociation; actives 0.071% (n = 340,000); Potency, µM (highest dose often 46.1 µM), for inactives: top-dose activity change, negative = inhibition; Biochemical FRET Rango-importin beta, RanGTP-induced dissociation; AID 540253; active means falling FRET ratio curve, often poorly fitted, with flat reads before Ran was added; inconclusive means other falling curves, or compound fluorescence or quenching; inactive means flat or rising ratio curve;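 further: potency means the concentration at half of the fitted maximal effect; % of control where 0% means no effect; nearly all actives have a fitted effect of over 45% in size; -100% = wells without RanGTP and RCC1; the record marks most hits as doubtful in a second field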
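Two FRET readings bracket the reaction: one 5 min after compound meets Rango–importin beta, another 45 min after RanGTP-RCC1 (0.6 uM Ran, 0.2 uM RCC1, 2 mM GTP) is added. Only the second defines inhibition.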
miR-21 reporter = miR-21 reporter, rising signal | 340,000 tested, under 10 active | Potency, µM (highest dose often 38.3 µM), for the others: top-dose reporter change, positive = more light | HeLa miR-21 FLuc reporter, luciferase, 48 h; active = well fitted rising curve with a large enough effect; inconclusive = small, poorly fitted or top-dose-only effect; inactive = no such curve, though single readings can be large or run the other way;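 further: % of control where 0% means no effect; miR-21 action dims this reporter so a rising signal means less miR-21 action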
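Compounds were titrated across several concentrations (up to approximately 40 uM) and incubated 48 hours with HeLa miR-21-FLuc reporter cells (miR-21 target sequence downstream of FLuc, endogenous miR-21). Readout was firefly luciferase luminescence after lytic detection reagent.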
* hit, by the source's call; ? = inconclusive; / = not tested or not shown; & = joins results of further samples; [ ] = dose if it differs, or a comment.

Screens in order: GLA inh pH 4.5, Rango complex inh, Rango release inh, miR-21 reporter
CCn1c(COc2ccc(Cl)cc2)nnc1SCc1nc2ccccc2[nH]1
 : -8, -3.8%, 1%, 19%
CN(C)C(=O)c1ccc(-c2n[nH]c(=O)c3ccccc23)cc1
 : 2, -3.0%, 0%, -1%
COCc1cc(C)nc2sc(C(=O)Nc3ccc(OC)cc3)c(N)c12
 : /, ?, ?, -70%
CCOC(=O)C1=C(COC(=O)c2cccc(N(C)C)c2)NC(=O)NC1C (stereo not given)
 : /, -1.6%, -3%, /
CNC(=O)NC(=O)COC(=O)CCCSc1nc2ccccc2s1
 : 1, -0.5%, 7%, ?
CCCc1nn2c(=O)cc(CSCC(=O)Nc3nnc(CC)s3)nc2s1
 : /, -2.7%, -9%, 2%
O=C(NCCN1CCN(C(=O)c2cccs2)CC1)c1cccs1
 : 5, -1.6%, -2%, -4%
COc1ccc(C2CC(c3cccs3)=NN2c2ccc(F)cc2)cc1OC (stereo not given)
 : ?, ?, ?, -6%
O=c1c2ccccc2ccc2ccc(P(=O)(O)O)cc12
 : /, 1.7%, 17%, /
COc1ccc(/C=N/n2c(C)nc3c([nH]c4ccccc43)c2=O)cc1CN1CCCC(C)(C)C1
 : -1, 1.0%, ?, -12%
COc1ccc(CNc2ccc(C(=O)O)cc2)cc1
 : 0, -4.1%, 12%, -32%
CN(CC(=O)NCc1ccccc1Cl)S(=O)(=O)c1cccs1
 : /, ?, 13%, -12%
CC(=O)C(Cc1ccccc1)NC(=O)CN1CCN(Cc2ccccc2)CC1 (stereo not given)
 : 2, -1.3%, 1%, -17%
COc1ccc(N2CC(NS(=O)(=O)c3cccnc3)CC2=O)cc1OC (stereo not given)
 : /, -1.6%, 1%, /
CCC(C)Oc1nc(C)cc(C)c1S(=O)(=O)c1ccccc1C (stereo not given)
 : 1, 5.4%, -10%, 1%

(continued)
Screens in order: GLA inh pH 4.5, Rango complex inh, Rango release inh, miR-21 reporter
CCOC(=O)c1ccc(NC(=O)CN2CCN(CCN=CC3=C(O)CC(C)(C)CC3=O)CC2)cc1
 : -2, -3.8%, 10%, -7%
CCOc1ccc(C(=O)c2ccccc2C(=O)O)cc1OCC
 : 1, -0.8%, 12%, 0%
C=CCOn1c(=O)c(-c2ccc(F)cc2)[n+]([O-])c2ccccc21
 : /, -0.1%, 17%, 3%
O=C(CSc1c[nH]c2ccccc12)NCc1ccc2c(c1)OCO2
 : -4, 0.4%, -5%, -10%
COc1cc2c(c(OC)c1OC)-c1ccc(OC)c(=O)cc1[C@@H](N(C)CC#CCO)CC2
 : /, 0.1%, 15%, 18%
CCN(CC)CCNC(=O)CCN1N=C(c2ccccc2)CCC1=O
 : /, -4.4%, 1%, -4%
Cc1cc(C)cc(NC(=O)N2CCCN(c3ncccc3[N+](=O)[O-])CC2)c1
 : 2, -1.5%, -4%, -14%
O=C(Nc1ccccc1)c1ccccc1Oc1ccc(C(F)(F)F)cc1[N+](=O)[O-]
 : -4, 0.1%, -4%, 13%
CCCS(=O)(=O)c1c(S(=O)(=O)CCC)c2cnccn2c1C(=O)c1ccc(F)cc1
 : -11, 1.1%, 27%, -12%
O=C1c2ccccc2C(=O)c2c([N+](=O)[O-])ccc(O)c21
 : -1, 3.2%, 1%, 5%
Cc1ccc(CN(C)C(=O)c2ccc(NS(=O)(=O)c3ccc4[nH]c(=O)[nH]c4c3)cc2)cc1
 : /, -2.5%, 0%, /
Cc1cc(C(F)(F)F)cc(NNC(=O)NC(=O)c2ccccc2Cl)n1
 : 4, -6.0%, 19%, 0%
Cc1cc(O)c(C(C)C)cc1N=Cc1ccc([N+](=O)[O-])cc1
 : /, -1.4%, 3%, /
Cc1nc(N)nc(OCC(F)(F)C(F)F)c1Br
 : -4, -1.6%, 13%, -2%
CN1CCNC(=O)C1CC(=O)N1CC=C(c2ccc(F)cc2)CC1 (stereo not given)
 : 6, 1.1%, -1%, -1%

Later entries:
Screens in order: GLA inh pH 4.5, Rango complex inh, Rango release inh, miR-21 reporter
CNC(=S)NNC(=O)Cc1ccccc1
 : 4, 4.0%, 34%, -4%
Cc1cc(C)n(CCNC(=O)C2CCC(=O)N(CC3CCCCC3)C2)n1 (stereo not given)
 : /, 4.4%, 12%, -2%
COc1ccc(Cl)cc1C(=O)NC(=S)Nc1nc(C)cc(C)n1
 : /, -1.8%, -3%, /
O=C(O)c1ccc(C2Nc3ccccc3C(=O)N2Cc2ccccc2)cc1 (stereo not given)
 : /, -4.7%, -9%, 1%
O=C(Nc1ccc2nc3n(c(=O)c2c1)CCCCC3)c1ccccc1[N+](=O)[O-]
 : /, 0.4%, -18%, -25%
Cc1nc2sc(C)c(C)c2c(=O)[nH]1
 : 0, 3.2%, -15%, -8%
CN(C(=O)COC(=O)c1ccc(Cl)nc1)C1CCS(=O)(=O)C1 (stereo not given)
 : 3, -2.3%, 1%, 0%
COc1ccc(/C(C)=N\NS(=O)(=O)c2ccccc2)cc1OC
 : -26, 9.6%, 0%, -5%
COc1nccnc1NS(=O)(=O)c1ccc(NC(=S)NC(=O)c2ccc(F)c(F)c2)cc1
 : 5, -3.7%, 3%, -13%
Cc1cc2c(cc1S(=O)(=O)N(C)c1ccccc1)n(C)c(=O)n2C
 : /, 1.5%, -4%, 4%
O=C(CCCC(=O)N/N=C\c1ccccn1)N/N=C\c1ccccn1
 : 1, -1.0%, 3%, -2%
COc1cccc(C(=O)NC(=S)Nc2ccccc2N2CCOCC2)c1
 : /, -0.2%, -3%, 3%
CN(C)/C=C/C(=O)c1cc(F)cc(C(F)(F)F)c1
 : -6, 0.6%, -3%, -3%
Cc1ccc(S(=O)(=O)/N=C2\SC(CC(=O)Nc3ccc(F)cc3)C(=O)N2c2ccccc2)cc1 (stereo not given)
 : 1, ?, -6%, 1%
Cc1nn(CC(=O)NC2CC2)c(C)c1S(=O)(=O)NC(C)(C)C
 : /, -1.8%, 0%, /

In the list so far, these have a COOH group.
Screens in order: GLA inh pH 4.5, Rango complex inh, Rango release inh, miR-21 reporter
COc1ccc(CNc2ccc(C(=O)O)cc2)cc1
 : 0, -4.1%, 12%, -32%
CCOc1ccc(C(=O)c2ccccc2C(=O)O)cc1OCC
 : 1, -0.8%, 12%, 0%
O=C(O)c1ccc(C2Nc3ccccc3C(=O)N2Cc2ccccc2)cc1 (stereo not given)
 : /, -4.7%, -9%, 1%

The listing continues:
Screens in order: GLA inh pH 4.5, Rango complex inh, Rango release inh, miR-21 reporter
Cc1cc(NC(=O)c2ccco2)ccc1NC(=O)c1ccco1
 : /, -4.1%, 3%, -38%
COc1ccc2c(c1)C(NC(=O)C(F)(F)F)CC2=O (stereo not given)
 : 5, ?, -5%, -7%
Cc1ccc(C(=O)OCC(=O)N2CCC(c3ccccc3)=N2)cc1
 : /, 2.0%, -4%, /
COc1ccc(-c2cn3cc([N+](=O)[O-])ccc3n2)cc1OC
 : 3, -0.4%, 3%, -45%
COc1ccc(CCNC(=O)CSc2cn(Cc3cccc(C)c3)c3ccccc23)cc1OC
 : -2, -0.4%, -9%, -2%
COc1ccccc1C(=O)OCC(=O)NC(=O)NCc1ccccc1
 : 2, 1.0%, 6%, 1%
CN(C)c1ccc(Nc2ccc([N+](=O)[O-])cn2)cc1
 : /, 0.4%, 15%, -46%
CCC/C=C(\CCC)C(NC(=O)c1ccc(C(=O)OC)cc1)c1ccc(C(=O)OC)cc1 (stereo not given)
 : -5, 9.2%, -15%, /
CCSc1ccccc1C(=O)N1CCN(Cc2ccc3c(c2)OCO3)CC1
 : -2, -1.7%, -10%, 0%
CCCN1CCN(S(=O)(=O)c2ccc3c(c2)CCC(=O)N3)CC1
 : /, -0.2%, 4%, /
O=c1cc(-c2ccccc2)[nH]c2ccccc12
 : 3&-3, 1.7%, 2%, 5%
CNC(=O)c1cc(S(=O)(=O)Nc2ccc3c(c2)OCO3)ccc1C
 : /, 1.8%, -7%, 0%
O=C(NC1CCCCCC1)c1ccc2nc3cc(Cl)ccc3c(=O)n2c1
 : 11[21.1 µM], -5.2%, 11%, -1%
O=[N+]([O-])c1ccccc1N/N=C1\CCc2ccccc21
 : 6, 2.7%, 0%, -38%
Cc1ccc(C)c(OCC(=O)Nc2c[nH]c(=O)[nH]c2=O)c1
 : 3, ?, -4%, -7%

(cont.)
Screens in order: GLA inh pH 4.5, Rango complex inh, Rango release inh, miR-21 reporter
C=CCn1c(CNC(=O)c2ccco2)nnc1SCC(=O)Nc1cccc(F)c1
 : 6, 4.7%, -2%, 0%
Cc1csc(NC(=O)CCC(=O)N(CC(=O)NC2CCCC2)Cc2ccccc2)n1
 : /, ?, ?, 3%
Nc1cc[n+](CC(=O)Nc2ccccc2)cc1
 : -6, 0.4%, -22%, 8%
O=C(O)CCC(=O)NCc1c(Cl)cccc1Sc1ccc(Cl)cc1
 : -7, 2.9%, 0%, -3%
COc1ccc2c(C)cc(SCc3c(C)noc3C)nc2c1
 : -1, -2.7%, 10%, -15%
Cc1cc(N)n2ncc(-c3ccc(Cl)cc3)c2n1
 : 4, -3.1%, 3%, -56%
CN(c1ccccc1)S(=O)(=O)c1ccc(Cl)c(C(=O)Nc2ccc(-c3nc4ccccc4[nH]3)cc2)c1
 : -1, 0.4%, 9%, 16%
CC(Oc1ccc2ccccc2c1)C(=O)N/N=C/c1cccnc1 (stereo not given)
 : /, -2.2%, 0%, -2%
CC(C)C(=O)Nc1nnc(COc2ccc(Cl)cc2)s1
 : -27, -1.3%, 14%, -14%
O=C(NCC1CCCO1)C1CCC(CNS(=O)(=O)c2ccccc2)CC1 (stereo not given)
 : -3, -0.5%, -1%, -6%
COc1ccc(-c2nc(=S)c3c(n2CCN2CCOCC2)CC(C)(C)OC3)cc1
 : 11, 1.2%, -3%, 1%
CCC1=Nc2ccccc2NC2=C1C(=O)CCC2
 : 1, 2.7%, 1%, -25%
O=C(N/N=C/c1cn(-c2cccs2)nc1-c1ccccc1)c1ccccc1O
 : 7, -1.4%, -3%, ?
O=C(CCC(=O)N1CCN(c2ccccc2F)CC1)N1CCN(c2ccc(F)cc2)CC1
 : /, -0.2%, 2%, 16%
CCOC(=O)c1c(-c2cccc([N+](=O)[O-])c2)csc1N
 : 6, -1.0%, -28%, -10%

More records:
Screens in order: GLA inh pH 4.5, Rango complex inh, Rango release inh, miR-21 reporter
COc1cccc(-c2nc(C(=O)NCC3CCCO3)cc3c2[nH]c2ccccc23)c1 (stereo not given)
 : /, -0.8%, -2%, 20%
CCCS(=O)(=O)NCCc1cc2c(C)ccc(C)c2[nH]c1=O
 : -1, -5.9%, 36%, -9%
O=C(NCC1CCCN(Cc2cccc(OCCO)c2)C1)c1ccc(F)cc1 (stereo not given)
 : 5, 1.8%, -17%, -3%
N#Cc1c(-c2ccc(F)cc2)ccnc1N1CCOCC1
 : 6, ?, -7%, -45%
CCOc1ccc2nc(NC(=O)CSc3nc4c(c(=O)n(C)c(=O)n4C)n3C(C)C)sc2c1
 : -15, -1.4%, 2%, -4%
C#CCSc1cc(C(F)(F)F)nc(-c2ccccn2)n1
 : 0, -0.3%, -1%, 3%
Cc1ccc(SCC(=O)Nc2c(Br)cnn2C)cc1
 : -5, 1.5%, 1%, 9%
NS(=O)(=O)c1cc(C2(O)NC(=O)c3ccccc32)ccc1Cl (stereo not given)
 : 5&6, -6.2%, 18%, -3%
COc1ccccc1NC(=S)N(Cc1ccccc1)Cc1ccccn1
 : -2, -0.2%, 14%, -10%
Cc1c(NC(=O)COc2cccc(F)c2)c(=O)n(-c2ccccc2)n1C
 : /, 0.0%, -4%, /
CC(O)[C@@H](NC(=O)C1CCC(CNC(=O)[C@H](Cc2ccccc2)NC(=O)OC(C)(C)C)CC1)C(=O)O (stereo not given in full)
 : /, 4.9%, -4%, -3%
Cn1cc(Cl)c(C(=O)N/N=C/c2ccc(OS(=O)(=O)c3ccccc3)cc2)n1
 : -11, -1.7%, 0%, -23%
COc1cc(OC)cc(-c2c(-c3cccs3)c3cc(-c4cccc5[nH]ccc45)ccc3n2C)c1
 : /, -4.3%, -22%, /
CC1CCN(S(=O)(=O)c2ccc(-c3nnc(SCc4cccnc4)o3)cc2)CC1
 : 2, 0.4%, 36%, 0%
CN(Cc1cccs1)C(=O)C1CCN(S(=O)(=O)c2ccccc2)CC1
 : /, 6.5%, 60%, /

Screens (PubChem)

These rows are one share of the data. The share of hits here may be higher or lower than overall.
